Screening results: PubChem BioAssay, SRMLSC
H5N1 antiviral: MDCK cell protection from H5N1 avian flu; actives 0.07% (n = 96,000); AID 740; inhibition, % at 50 µM; cytopathic effect, luminescence, 72 h; active compounds read high; no value below 0 was filed and about half of the inactive calls have no number; reference of the scale not given here; in the data active = inhibition above about 25%
Numbers without * were called inactive; i = inactive.

compound | H5N1 antiviral
CC1CCCCC1NC(=O)Cn1c(CN2CCCCC2)nc2ccccc2c1=O (stereo unspecified) | i
Cc1ccc(SCc2nnc(N)s2)cc1 | i
CCn1nnnc1NCc1cccn1C | 0.5
CCCCSc1nc(N)c(NC(=O)c2ccco2)c(=O)[nH]1 | 2.3
O=C(NCC1CCCO1)c1ccc(CS(=O)(=O)Cc2ccc(F)cc2)o1 (stereo unspecified) | i
CC(C)(C)S(=O)(=O)c1cnc2c(-c3ccc(Cl)cc3)cnn2c1N | i
COC(=O)Nc1nc2c(C)cccc2s1 | 1.0
N#CCCN(C(=O)CSc1nc(-c2ccccc2)cn1N)c1ccc(F)cc1 | 1.8
COc1ccc(OC)c(NC(=O)CSc2nc3c(c(=O)n(C)c(=O)n3C)n2C)c1 | 1.0
COCCn1nnnc1C(C(C)C)N(Cc1ccccc1)Cc1cc2cc(OC)ccc2[nH]c1=O (stereo unspecified) | 0.7
Cc1nn(-c2ccccc2)c2sc(C(=O)N3CCOCC3)cc12 | 0.8
Cn1c(-c2ccc(F)cc2)cnc1SCC(=O)Nc1ccccc1N1CCOCC1 | i
Cc1ccc(C)c(OCC(=O)Nc2ccc3c(c2)OCO3)c1C | i
Cc1nn(C)c(C)c1/C=N/NC(=O)C(C)(C)Oc1ccc(Cl)cc1 | i
Cc1cc(C)c(S(=O)(=O)NCC(=O)O)cc1C | i
Fc1cccc(Nc2cc(-n3cccn3)ncn2)c1 | 8.1
CC(=O)NC(Cc1ccccc1)C(=O)NC1CCN(C(=O)c2cnccn2)CC1 (stereo unspecified) | 0.1
CC(C)(CO)NCc1cc(Br)ccc1OCc1ccccc1 | i
COC(=O)c1cc(OC)c(OC)cc1NC(=O)c1ccc(OC)cc1 | 0.3
O=c1c(C=NCCCn2ccnc2)c(-c2ccccc2)[nH]n1-c1nc2ccccc2s1 | i
CCNc1nc(NCC)nc(N(C)n2cnnc2)n1 | 0.2
O=C(NC(=S)Nc1nc(-c2ccccc2)cs1)c1cncc(Br)c1 | i
O=C(Nc1ccccc1)O/N=C/c1ccncc1 | i
COc1ccc2oc(C(=O)c3ccccc3)c(NC(=O)CN3CCN(C)CC3)c2c1 | i
CCOc1ccccc1OCC(=O)Nc1ccc(S(=O)(=O)N(C)C)cc1 | 0.3
CCOc1cc(/C=N/O)cc(Cl)c1OC | 2.9
COc1ccc(Nc2cc(C)nc3ccccc23)cc1 | i
CCOc1cc(CN2CCN(c3ccc(C(C)=O)cc3)CC2)ccc1OC | 0.7
CCOc1ccc(OCC)c(S(=O)(=O)N2CCC(C)CC2)c1 | 1.6
C=CCn1c(SCC(=O)Nc2nnc(CC)s2)nnc1-c1ccco1 | i
O=C(O)Cn1c(C(F)(F)F)nc2ccccc21 | i
CCc1ccc(-c2nn(-c3ccccc3)cc2C2SCC(=O)N2Cc2ccco2)cc1 (stereo unspecified) | 3.6
Cc1cc(=O)n2ccccc2c1C#N | 1.3
CCN1CCN(c2cc(C)c3cc(NC(=O)c4ccc(OC)c(OC)c4)ccc3n2)CC1 | i
CCOc1ccc(N2C(=O)CC(Sc3nc(-c4cccs4)cc(C(F)(F)F)c3C#N)C2=O)cc1 (stereo unspecified) | i
CC(C)c1ccc(NC(=O)CCNS(=O)(=O)c2cccc3nsnc23)cc1 | 0.1
CCOc1ccc2ccccc2c1C(=O)Nc1cc(=O)n(C)c(=O)n1C | i
Cn1c(N/N=C/c2ccccc2)nc2sc3c(c2c1=O)CCC3 | i
CCC1(CC)Cc2ccccc2-c2nc(-c3ccccc3)oc(=O)c21 | 0.1
CC(C)c1ccc(NC(=O)C2CCCN(S(=O)(=O)c3cnc[nH]3)C2)cc1 (stereo unspecified) | 5.5
CC(C)(C)C1(C)OC(C(=O)NC2CCCCC2)C(C(=O)NC2CCCCC2)O1 (stereo unspecified) | 0.4
O=C(Nc1ccccc1)c1ccccc1O | 5.5
C=CCOC(=O)CSCC(NC(=O)OC(C)(C)C)C(=O)OCC (stereo unspecified) | i
Cc1sc2ncnc(OCC(=O)Nc3ccc4c(c3)OCCO4)c2c1C | 0.0
Cc1cc(NC(=O)CSc2c3c(nc4ccccc24)CCC3)no1 | 3.8
NS(=O)(=O)c1ccc(CCNC(=O)COC(=O)C2CCCN2C(=O)c2cccs2)cc1 (stereo unspecified) | 0.2
COc1ccc(-c2cc(C(F)F)n3ncc(C(=O)N4CCN5CCCC5C4)c3n2)cc1 (stereo unspecified) | 0.1
c1ccc(Nc2nnc(SCc3cccc4ccccc34)s2)cc1 | i
c1ccc2c(c1)OCC(c1nnc3sc(-c4ccc5c(c4)OCO5)nn13)O2 (stereo unspecified) | i
CCOc1ccc(NC(=O)c2ccc(Br)o2)c([N+](=O)[O-])c1 | i
Cc1ccc(S(=O)(=O)N2CCSC2)cc1C | 1.0
CC(C)(C)C(=O)NC(=S)Nc1ccccc1F | 9.0
Cc1ccc(S(=O)(=O)N2Cc3ccccc3CC2C(=O)Nc2cc(C)on2)cc1 (stereo unspecified) | i
COc1cc(C2CC(=O)c3cnc(N)nc3C2)cc(OC)c1OC (stereo unspecified) | 1.9
CCC(C)N1CC(C(=O)NC2CCCCC2)CC1=O (stereo unspecified) | i
Cc1ccc(CC(=O)Nc2cccc(C)n2)cc1 | 0.1

Next part:
compound | H5N1 antiviral
CCOc1ccccc1N1Cc2cc(C)c(C)cc2C1 | 2.4
CCOC(=O)c1c(C)oc2c1c1c(c3ccccc32)OCN(Cc2ccccn2)C1 | i
Cc1ccc(NC(=O)CN(C)CC(=O)Nc2c(C)cccc2C)c(Br)c1 | 1.6
CCOC(=O)C1CCN(C(c2cccc(OC)c2)c2sc3nc(C)nn3c2O)CC1 (stereo unspecified) | 0.1
CC(=O)Nc1cccc(Oc2cnc3ccccc3n2)c1 | 0.8
COC(=O)C(NNc1ccccc1C)(NC(=O)c1ccc(F)cc1)C(F)(F)F (stereo unspecified) | i
O=C(COC(=O)CCCN1C(=O)c2ccccc2C1=O)Nc1ncc(Cl)cc1Cl | 0.2
CCOC(=O)C1=C(C)NC2=C(C(=O)C(C(=O)OCC)C(c3ccco3)C2)C1c1ccccn1 (stereo unspecified) | i
Cc1cccc(C(=O)NNC(=O)c2cc3cc4ccccc4nc3s2)c1 | i
Cn1ccnc1SCC(=O)c1ccc(Br)cc1 | i
CN1C(=O)CC(N2CCN(c3ccccn3)CC2)C1=O (stereo unspecified) | i
O=C(NC1(C(F)(F)F)NC(=O)N(CC2CCCCC2)C1=O)c1ccco1 (stereo unspecified) | 0.4
COc1ccc(C(=O)Nc2cc(C)c3c(=O)oc4ccccc4c3n2)cc1 | 1.3
COc1cc(C2CC(=O)N3CN(Cc4ccccc4)CSC3=C2C#N)ccc1OCc1ccccc1 (stereo unspecified) | 0.4
Cn1c(=O)oc2cc(S(=O)(=O)NCCN3CCN(c4ccccc4F)CC3)ccc21 | 0.1
CCC(C)n1c(SCC(=O)Nc2ccccc2C(F)(F)F)nc2ccsc2c1=O (stereo unspecified) | 0.7
COc1ccc(Cl)cc1NC(=O)Cn1c(=O)n2nc(C)nc2c2ccccc21 | i
COc1ccc(-c2nc(-c3cccc(C)c3)nc(N3CCN(C)CC3)c2C#N)cc1 | i
COc1ccccc1OCC(=O)NNC(=O)c1cnccn1 | 1.4
CCCCC1(CC)C(=O)NC(=O)NC1=Nc1ccc(OC)cc1 (stereo unspecified) | 0.1
CSc1nnc(C)c(/C=C/Nc2ccc(Cl)cc2)n1 | 0.7
COc1ccc(-n2c(=O)cc(N3CCCCCC3)[nH]c2=O)cc1 | i
COc1ccc(C(CC(=O)O)NC(=O)COc2ccccc2)cc1OC (stereo unspecified) | i
COc1cc(Cl)c(S(=O)(=O)N2CC(C)OC(C)C2)cc1Cl (stereo unspecified) | 1.0

(continued)
| compound | H5N1 antiviral |
| --- | --- |
| CCOC(=O)C1CCCN(C(=O)c2cc(Nc3ccc(OC)cc3)nc3ccccc23)C1 (stereo unspecified) | 2.0 |
| Cc1cc(Nc2ccc(C(=O)O)cc2)n2nc(C)nc2n1 | 1.2 |
| CC1CCC2C(C1)c1sc(=O)[nH]c1SC2(C)C (stereo unspecified) | 2.0 |
| CCCn1c(SCC(=O)Nc2cccc(C(=O)OC)c2)nnc1-c1cccnc1 | 0.6 |
| O=C(Cc1ccc(-n2cccc2)cc1)N1CCN(c2ccccc2F)CC1 | 0.4 |
| CCOC(=O)c1c(-c2cccs2)csc1NC(=O)COC(=O)c1c(C)noc1C | i |
| CCOC(=O)c1sc(=S)n(C)c1N | i |
| Cc1cc(=O)oc(C)c1C(=O)N1CCN(C(c2ccccc2)c2ccccc2)CC1 | 2.2 |
| COc1ccc(/C=N/n2c(SC)nnc(C(C)(C)C)c2=O)c(OC)c1 | i |
| CCCNC(=O)NC(=O)COc1ccc2oc3ccccc3c2c1 | 0.8 |

Given as labelled records: 3 of the compounds above
Cc1cc(=O)oc(C)c1C(=O)N1CCN(C(c2ccccc2)c2ccccc2)CC1
  H5N1 antiviral: 2.2

COc1ccc(/C=N/n2c(SC)nnc(C(C)(C)C)c2=O)c(OC)c1
  H5N1 antiviral: i

CCCNC(=O)NC(=O)COc1ccc2oc3ccccc3c2c1
  H5N1 antiviral: 0.8

More structures
| compound | H5N1 antiviral |
| --- | --- |
| COc1ccccc1N1CCN(Cc2nc(N)nc(Nc3ccc(C)cc3)n2)CC1 | 0.0 |
| COc1ccc(C(=O)O)cc1Nc1cc(C)nc2ncnn12 | 0.4 |
| O=[N+]([O-])c1ccc2c(c1)C(N1CCOCC1)/C(=C/COc1ccc(Cl)cc1Cl)O2 (stereo unspecified) | 2.0 |
| CS(=O)(=O)N1CCC(C(=O)N2CCC(Cc3ccccc3)CC2)CC1 | i |
| O=S(=O)(Nc1cccnc1)c1cc(Cl)ccc1Cl | i |
| O=C(CCCCn1c(=O)[nH]c2ccccc2c1=O)NCc1ccc2c(c1)OCO2 | 1.3 |
| Cc1ccc(S(=O)(=O)Nc2nc3ccccc3nc2NCc2ccco2)cc1C | 1.2 |
| CCOc1ccc(S(=O)(=O)N(CC(=O)N2CCc3ccccc32)Cc2ccco2)cc1 | 0.1 |
| CCCOc1ccc(C(=O)N2CCN(c3ccc(N)cc3Cl)CC2)cc1 | 1.1 |
| CCCNC(=O)c1cn(CC)c2cc(N3CCN(C)CC3)c(F)cc2c1=O | 0.1 |

Reformatted with each value named: part of the list above
O=C(NC1(C(F)(F)F)NC(=O)N(CC2CCCCC2)C1=O)c1ccco1 (stereo unspecified)
- H5N1 antiviral = 0.4

COc1ccc(C(=O)Nc2cc(C)c3c(=O)oc4ccccc4c3n2)cc1
- H5N1 antiviral = 1.3

COc1cc(C2CC(=O)N3CN(Cc4ccccc4)CSC3=C2C#N)ccc1OCc1ccccc1 (stereo unspecified)
- H5N1 antiviral = 0.4

Cn1c(=O)oc2cc(S(=O)(=O)NCCN3CCN(c4ccccc4F)CC3)ccc21
- H5N1 antiviral = 0.1

(continued)
| compound | H5N1 antiviral |
| --- | --- |
| Cc1cccc(/C(N)=N/OC(=O)N2CCOCC2)c1 | i |
| C=CCn1c(SCC(=O)NC(C)(C)C)nnc1-c1ccccc1O | 0.4 |
| OCc1nc2ccccc2n1C/C=C/c1ccccc1 | 0.9 |
| COC(=O)c1[nH]c2cc(OC)ccc2c1NC(=O)c1nonc1C | i |
| COC(=O)c1ccccc1NC(=O)c1ccc2c(c1)OCCO2 | i |
| CC1(C)CC(=O)C(C(C2=C(O)CC(C)(C)CC2=O)c2cccc(O)c2)C(=O)C1 (stereo unspecified) | 0.3 |
| N#CC1=C(SCC(=O)c2ccccc2)NC2=C(C(=O)CCC2)C1c1ccco1 (stereo unspecified) | 8.5 |
| Cc1[nH]c(=O)c(C#N)c2c1CCCC2 | i |
| O=C(c1ccc(Cl)c(Cl)c1)N(Cc1ccco1)c1ccc(O)cc1 | 0.4 |
| Clc1ccc(-c2nnc(CCc3ccccc3)o2)c(Cl)c1 | 0.2 |
| O=C(/C=N/O)NCc1ccncc1 | i |
| Cc1c(C)c2cc3c4c(oc3c(C)c2oc1=O)CCCC4 | 2.2 |
| CC1(C)CC(=O)C(C=NCCN2CCN(CCc3ccccc3)CC2)=C(O)C1 | i |
| COc1ccc(N=C2C(=Nc3ccc(OC)cc3)N(c3ccc(OC)cc3)C(=S)N2c2ccccc2)cc1 | i |
| Cc1cc2nc(CCN(Cc3cccnc3)C(=S)Nc3ccccc3)[nH]c2cc1C | 1.1 |
| Cc1ccc2nc(C(F)(F)F)c(C#N)c(N)c2c1 | 0.6 |
| CC1CC(C)CN(C/C=C/c2ccccc2[N+](=O)[O-])C1 (stereo unspecified) | 0.7 |
| O=C(COc1ccc(-c2ccccc2)cc1)N1CCN(S(=O)(=O)Cc2ccccc2)CC1 | 0.0 |
| O=C(Nc1ccccc1)c1ccc(CSc2ccccn2)cc1 | i |
| CCn1cc(C(=O)Nc2ccc3c(c2)OCCO3)c2cc(OC)c(OC)cc2c1=O | 3.8 |
| Cc1cccc(-n2nc3c(c2NC(=O)c2ccco2)CSC3)c1C | i |
| CCOc1cc(NC(=S)NCC2CCCO2)c(OCC)cc1NC(=O)c1ccccc1 (stereo unspecified) | 0.9 |
| COc1ccc(Br)cc1CN1CCCC(C(=O)N2CCCCC2)C1 (stereo unspecified) | 0.3 |
| CCC(=O)N1CN(S(=O)(=O)c2ccc(C)cc2)CC1C (stereo unspecified) | i |
| COc1ccc(C(=O)c2coc3ccc(O)c(CN(C)C)c23)cc1 | 0.5 |
| Cc1ccc(CN(CC(=O)N/N=C/c2ccco2)S(=O)(=O)c2ccc(C)cc2)cc1 | i |
| Cc1ccc(Cn2c(NC(=O)c3ccco3)nc3ccccc32)cc1 | 0.6 |
| COCCn1c(SCc2cccnc2)nnc1-c1c[nH]c2ccccc12 | 3.0 |
| CC1CCCN(C(=O)CSc2cnc3ccccc3n2)C1 (stereo unspecified) | 2.3 |
| Cc1nc2cc(F)ccc2n1C1CCN(S(=O)(=O)c2ccccc2)CC1 | 3.2 |
| Cc1ccc(CCNC(=O)C2CCCN2S(=O)(=O)c2ccc3c(c2)CCC(=O)N3)cc1 (stereo unspecified) | 1.6 |

Some of the compounds tested (hit frequency here may not be typical).
